KCNQ2 inh – KCNQ2 potassium channel inhibitors, primary screen, cell-based, CHO-K1, FluxOR thallium flux, B-score (AID 2156); 20 min; active compounds read low; only compounds with negative scores are shown here; some inactives read as strong as hits; B-score at 10 µM; actives 1.1% (n = 310,000);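 active = fluorescence ratio B-score at most minus 3 library SDs, with starting brightness B-score within 2 library SDs, cut at about -5.5 in these data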
Target sequence (O88943 whole entry, looked up): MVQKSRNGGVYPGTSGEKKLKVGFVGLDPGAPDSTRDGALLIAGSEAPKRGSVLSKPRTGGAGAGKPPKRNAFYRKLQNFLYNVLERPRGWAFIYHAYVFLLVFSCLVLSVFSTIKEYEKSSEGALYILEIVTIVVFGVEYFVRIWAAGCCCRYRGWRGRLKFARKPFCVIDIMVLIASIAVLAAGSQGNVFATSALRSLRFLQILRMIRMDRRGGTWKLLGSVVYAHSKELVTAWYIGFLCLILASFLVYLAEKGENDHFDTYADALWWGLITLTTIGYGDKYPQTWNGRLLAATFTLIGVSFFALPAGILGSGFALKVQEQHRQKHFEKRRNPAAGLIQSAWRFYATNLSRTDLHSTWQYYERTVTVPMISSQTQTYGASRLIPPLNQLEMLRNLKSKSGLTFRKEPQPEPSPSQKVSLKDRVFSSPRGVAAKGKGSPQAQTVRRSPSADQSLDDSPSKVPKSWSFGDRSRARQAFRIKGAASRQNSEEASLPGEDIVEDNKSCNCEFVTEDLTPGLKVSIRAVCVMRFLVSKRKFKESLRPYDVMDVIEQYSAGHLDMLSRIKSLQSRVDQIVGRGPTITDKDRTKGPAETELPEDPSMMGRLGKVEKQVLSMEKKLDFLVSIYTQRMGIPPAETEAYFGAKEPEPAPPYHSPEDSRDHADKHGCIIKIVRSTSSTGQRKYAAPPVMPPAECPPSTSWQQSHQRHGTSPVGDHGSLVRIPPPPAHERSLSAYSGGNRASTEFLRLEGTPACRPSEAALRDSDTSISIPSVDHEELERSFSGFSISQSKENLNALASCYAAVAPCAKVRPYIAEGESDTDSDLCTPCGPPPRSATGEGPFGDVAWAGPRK
KCNQ2 inh baseline – also measured in KCNQ2 inh; calls as there; B-score; measured here: initial fluorescence intensity artifact check;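 brightness before thallium and not channel activity; 0 = typical well and far values either way flag optical interference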
Numbers without * were called inactive; i = inactive. Only part of the results is shown; the hit share may differ from the screen's.

Sequence of screens: KCNQ2 inh baseline, KCNQ2 inh
> CC(NC(=O)C1CCC(=O)N1Cc1ccc(F)cc1)c1ccc2c(c1)OCCO2 (stereo not drawn)
    1.6, i
> COc1cccc(CNC(=O)c2ccccc2-c2ccccc2C(=O)O)c1
    0.68, i
> Cc1cccc(NC2CCCCC2NS(=O)(=O)c2ccccc2)c1 (stereo not drawn)
    0.03, i
> O=C(/C=C/c1cccc([N+](=O)[O-])c1)N1CC[C@@]2(O)CCCC[C@H]2C1
    2.1, i
> CC1COc2ccccc2N1C(=O)c1ccc(F)cc1 (stereo not drawn)
    1.3, i
> O=C(/C=C/c1ccc([N+](=O)[O-])cc1)OCc1cnc(-c2ccccc2)o1
    -1.3, i
> COc1ccc(C2=NN(S(C)(=O)=O)C(c3cccs3)C2)cc1 (stereo not drawn)
    -1.6, i
> COc1ccc(C(=O)NNS(=O)(=O)c2ccccc2)cc1OC
    0.02, i
> O=C(Nc1ccccc1Cl)C1CC(=O)n2c(nc3ccccc32)N1 (stereo not drawn)
    -0.72, i
> O=c1cc(COc2ncnc3c(Cl)cc(Cl)cc23)nc2sccn12
    -0.24, i
> O=C1Nc2cc(C(=O)NCCN3CCCCCC3)ccc2S/C1=C\c1ccccc1
    -0.75, i
> Cc1ccc(-c2nc3cc(NC(=O)C(C)C)ccc3o2)cc1
    -0.55, i
> CN1CCN(c2ccc([N+](=O)[O-])cc2NC(=O)c2ccccc2Cl)CC1
    1.4, i
> O=C(NCCc1cccs1)C1CC(c2c(Cl)cccc2Cl)=NO1 (stereo not drawn)
    -0.26, i
> O=C(NC1CC2CCC(C1)N2C(=O)NCc1ccccc1)NC12CC3CC(CC(C3)C1)C2 (stereo not drawn)
    -0.63, i
> COc1cccc(COc2ccccc2C2Nc3ccc(Br)cc3C(=O)N2NC(=O)c2ccncc2)c1 (stereo not drawn)
    0.37, i
> CCCOC(=O)C(C)n1cnc2sc(C)c(C)c2c1=O (stereo not drawn)
    -0.37, i
> Cc1ccc(Oc2ncccc2NC(=O)CCCC(=O)O)c2c1CCC2
    0.62, i
> COc1ccc(N2CCN(C(=O)CN(Cc3ccccc3)S(C)(=O)=O)CC2)cc1
    1.3, i
> Cc1ccc(S(=O)(=O)NC(C)C(=O)NCc2ccc(Cl)cc2)cc1 (stereo not drawn)
    -0.5, i
> O=S(=O)(Nc1ccc(Cl)cn1)c1cccc(S(=O)(=O)c2ccccc2)c1
    2.2, i
> CC(C)COC(=O)C(C#N)c1nc2ccccc2nc1N1CCN(Cc2ccccc2)CC1 (stereo not drawn)
    2.6, i
> CCN(CC)C(=O)Nc1ccc(C(=O)OC)cc1
    -0.49, i
> CN(C)CCC(=O)N1c2ccccc2Sc2ccc(Cl)cc21
    1.4, i
> COc1cc(C=C2C(=O)OC(c3ccccc3)OC2=O)cc(Br)c1O (stereo not drawn)
    0.18, i
> Cc1cccc(C=Nc2ccc3c(c2)oc2ccccc23)c1O
    0.85, i
> CC(=O)c1cnc2c(C(=O)O)cnn2c1C
    0.65, i
> Cc1ccc(S(=O)(=O)N(C)C)cc1NC(=O)CSc1nnnn1-c1ccc(O)cc1
    -0.02, i
> CCOC(=O)c1ccc(NC(=O)NCCc2cnc[nH]2)cc1
    2.6, i
> Oc1ccc2ccccc2c1N=Nc1ccccc1F
    -0.3, i

(further entries)
Sequence of screens: KCNQ2 inh baseline, KCNQ2 inh
> CSc1ccccc1C(=O)N1CCN(c2cccc(Cl)c2)CC1
    -1, i
> Cc1nccn1CCCNC(=O)C1CCC(=O)N(Cc2ccccc2F)C1 (stereo not drawn)
    0.97, i
> N#C/C=C/C(=C\Nc1ccc(Cl)cc1)S(=O)(=O)c1ccccc1
    0.14, i
> CCOC(=O)/C(C#N)=C/N=c1ccc(C)cn1C
    0.39, i
> Cc1ccc(S(=O)(=O)Nc2cccc(-c3ccc4nnc(C)n4n3)c2)s1
    -0.06, i
> N#CCCN1CCN(C(=S)c2ccc(-c3ccc(Cl)c(Cl)c3)o2)CC1
    0.92, i
> COc1ccccc1OC(=O)c1cc2ccccc2oc1=O
    2.3, i
> CCc1cc(=O)oc2cc(OCC(=O)NCCCN3CCCC3=O)ccc12
    -0.08, i
> O=C(Nc1ccn(Cc2c(F)c(F)c(F)c(F)c2F)n1)c1ccc(COc2ccccc2Cl)cc1
    4.8, i
> O=C(CCSCc1ccccc1F)N1CCN(c2ccccn2)CC1
    0.37, i
> CCOC(=O)c1cc(C)nc(Sc2ccc(C)cc2)c1C#N
    2, i
> Cc1ccc(NC(=O)CCn2cnc3ccccc3c2=O)cc1
    0.86, i
> CC(C)(C)n1nnnc1C(c1cccnc1)N(Cc1ccccc1)Cc1ccco1 (stereo not drawn)
    -0.6, i
> Cc1cccc(C)c1OCC(=O)Nc1ccccc1C(F)(F)F
    -0.47*, -7*
> CCOc1nc(C)cc(C)c1S(=O)(=O)c1cccc(Cl)c1
    2.2, i
> CC(C)(Oc1ccc(Cl)cc1)C(=O)OCC(=O)Nc1ncc(Cl)cc1Cl
    1.6, i
> CCC(C)C(NC(=O)C1CCC(C)CC1)C(=O)Nc1ccc(OC)cc1OC (stereo not drawn)
    1.7, i
> C/C(CCc1ccc2c(c1)OCO2)=N\NC(=S)NC(C)C
    1.3, i
> O=C(NC1CCN(S(=O)(=O)c2ccccc2)CC1)c1ccc(F)cc1
    0.44, i
> CNS(=O)(=O)c1ccc2c3c(cccc13)C(=O)N2
    1.7, i
> COc1ccc(C)cc1S(=O)(=O)N1CCc2ccccc2C1
    -0.11, i
> CCc1noc(C)c1C(=O)NC1CCCc2c1cnn2-c1ccc(C(C)(C)C)cc1 (stereo not drawn)
    -0.68, i
> COc1ccc(CC(=O)Nc2c3c(nn2C(C)(C)C)CS(=O)C3)cc1 (stereo not drawn)
    -1.2, i
> COC(=O)c1ccccc1N/C=C/C(=O)c1ccc(Br)cc1
    0.09, i
> CN1C(=O)N(C)C(c2ccccc2Cl)C2=C1CC(C)(C)CC2=O (stereo not drawn)
    -1.3, i
> C=CCN1C(=O)C(Cc2ccc(OCC)cc2)S/C1=N\N=C\c1cccs1 (stereo not drawn)
    -0.53*, -5.6*
> O=C(/C=C/c1ccc(OCc2c(F)cccc2Cl)cc1)N1CCOCC1
    -1.1, i
> COc1ncnc(OC)c1NC(=O)c1ccc(F)cc1
    1.4, i
> Cn1c(=O)c2cc(S(=O)(=O)N3CCN(c4cccc(C(F)(F)F)c4)CC3)ccc2n(C)c1=O
    0.12, i
> COc1cc(OC)cc(C(=O)Nc2ccc(S(=O)(=O)N(C)C)cc2)c1
    1.1, i

Given field by field: part of the list above.
smiles: O=C(NC1CCN(S(=O)(=O)c2ccccc2)CC1)c1ccc(F)cc1
  KCNQ2 inh baseline: 0.44
  KCNQ2 inh: i

smiles: CNS(=O)(=O)c1ccc2c3c(cccc13)C(=O)N2
  KCNQ2 inh baseline: 1.7
  KCNQ2 inh: i

smiles: COc1ccc(C)cc1S(=O)(=O)N1CCc2ccccc2C1
  KCNQ2 inh baseline: -0.11
  KCNQ2 inh: i

smiles: CCc1noc(C)c1C(=O)NC1CCCc2c1cnn2-c1ccc(C(C)(C)C)cc1 (stereo not drawn)
  KCNQ2 inh baseline: -0.68
  KCNQ2 inh: i

Further entries.
Sequence of screens: KCNQ2 inh baseline, KCNQ2 inh
> CC1CN(S(=O)(=O)c2ccc(C(=O)NCCCn3ccnc3)cc2)CC(C)O1 (stereo not drawn)
    0.62, i
> Cc1ccc(F)c(NC(=O)c2c(-c3ccccc3)noc2C)c1
    1.2, i
> Cc1ccc2oc(=O)n(CCCOc3ccccc3C)c2c1
    -0.11, i
> Clc1cccc(CON/C=N/c2ncnc3sccc23)c1
    0.1, i
> FCCCOc1ccc(CN2CCN(c3ccccc3F)CC2)cc1
    -1.9, i
> CC1CCCN(c2nc3ccsc3c(=O)s2)C1 (stereo not drawn)
    -0.17, i
> O=C(c1ccoc1)N1CCC2(CC1)Oc1ccc(Cl)cc1C(=O)C21CC(c2ccc(Cl)cc2)=NO1 (stereo not drawn)
    -0.16, i
> O=C(Nc1ccc(N2CCN(c3ccccc3)CC2)c(F)c1)C1CC1
    -0.82, i
> COc1ccccc1N1CCN(c2ccnc3cc(Cl)ccc23)CC1
    -1.4, i
> Oc1ccc(/C=N/Nc2ccc(C(F)(F)F)cn2)cc1
    -0.56, i
> Cc1ccc(S(=O)(=O)N2CCC(C(=O)NNC(=O)C3CC3)CC2)cc1Cl
    0.98, i
> CCCc1noc2c1/C(=N\O)CCC2
    2.3, i
> COc1ccc(OCCC(=O)NC2=NCCS2)cc1
    0.36, i
> Nc1n[nH]c2c1C1(CCCC1)Cc1ccccc1-2
    0.93, i
> COc1ccc(NC(=O)C(c2cc3c(cc2[N+](=O)[O-])OCO3)N(C)Cc2ccccc2)cc1 (stereo not drawn)
    -0.72, i
> CSc1ccc(/C=C/c2ccc3cccc(O)c3n2)cc1
    0.17, i
> CN(c1ccccc1)S(=O)(=O)c1nnc(NC(=O)c2ccco2)s1
    -1.8, i
> Cc1cc(-n2nc(C)cc2C)n2nc(C)c(-c3ccccc3)c2n1
    0.01, i
> CCOC(=O)C1CCN(C(=S)Nc2cc(OC)c(OC)cc2C(=O)OC)CC1
    -0.01, i
> COc1cccc(-c2ccc(NC(=O)C3CCCN(Cc4cnc(N(C)C)s4)C3)cc2)c1 (stereo not drawn)
    -1.5, i
> COc1ccc(-n2ncc(C(C)NS(=O)(=O)c3ccc(C)s3)c2C)cc1 (stereo not drawn)
    -0.12, i
> CC1CC(C)(C)NC(=S)N1CCCC(=O)Nc1ccc(Cl)cc1 (stereo not drawn)
    0.06, i
> Clc1ccc(-c2csc(N3CCN(c4ccccc4)CC3)n2)cc1
    0.46, i
> Cc1ccc(-c2nnc(C)c(N3CC(C)OC(C)C3)n2)cc1 (stereo not drawn)
    0.06, i
> N#C/C(=C/c1ccc(F)cc1)c1nc(CCN2C(=O)c3ccccc3C2=O)cs1
    -1.6, i
> COc1cccc(NC(=O)Nc2ccc(C(C)(C)C)cc2)c1
    -1.7*, -8.7*
> O=C(NC1CCCC1)C1CC(=O)N(c2ccc(F)c(Cl)c2)C1 (stereo not drawn)
    -0.14, i
> Cc1cccc(-n2cc(C(=O)O)c(=O)cc2C)c1
    2.5, i
> CC(NS(=O)(=O)c1ccc(OCC(=O)NCc2ccccn2)cc1)c1ccccc1 (stereo not drawn)
    1.1, i
> CC(CCc1ccccc1)NC(=O)C(C)OC(=O)c1ccco1 (stereo not drawn)
    0.59, i

The list goes on:
Sequence of screens: KCNQ2 inh baseline, KCNQ2 inh
> COc1ccc(C=C2C=C(C(C)(C)C)C(=O)C(C(C)(C)C)=C2)cc1OC
    -0.66, i
> CCCc1c(C)nc2c(Br)cccc2c1Cl
    0.19, i
> COC(=O)c1ccc(CN2CCCCC2)cc1
    -1.1, i
> COc1cc(C2CC(=O)c3cnc(N4CCN(Cc5ccccc5)CC4)nc3C2)cc(OC)c1OC (stereo not drawn)
    0.68, i
> COc1cccc(N(C(=O)CCl)C(C(=O)NCCc2ccccc2)c2cccs2)c1 (stereo not drawn)
    0.64, i
> C=CCc1cccc(/C=N/NC(=O)C(=O)Nc2ccc(C)cc2)c1O
    -0.53, i
> CCN(CC)C(=S)SC1CCCCN(C(=O)c2ccc(F)cc2)C1=O (stereo not drawn)
    0.05, i
> O=C(CN1C(=O)c2ccccc2C1=O)Nc1cccc(O)c1
    0.09, i
> NCCN1C(=O)S/C(=C\c2ccc3c(c2)OCO3)C1=O
    0.08, i
> Cc1ccc(NC(=O)CS(=O)Cc2nc(-c3ccc(C)cc3)oc2C)cc1 (stereo not drawn)
    -0.86, i
> CCOc1ccc2oc(C(=O)N3CCN(c4ccccn4)CC3)c(C)c2c1
    3.9, i
> CCc1cc(C(=O)N2CCCC(C(=O)c3ccc(C(F)(F)F)cc3)C2)n(C)n1 (stereo not drawn)
    0.6, i
> COc1ccccc1N1CCN(CCCC(=O)c2ccc(F)cc2)CC1
    0.14, i
> Cc1ccc2cc(C(c3nnnn3C3CCCC3)N3CCOCC3)c(=O)[nH]c2c1C (stereo not drawn)
    0.88*, -9.5*
> COc1cc(/C=C/[N+](=O)[O-])ccc1OC(=O)/C=C/c1ccc(F)cc1
    -1.9, i
> CCCCOC(=O)c1ccc(NC(=O)C(=O)NCc2cccnc2)cc1
    -0.34, i
> Nc1ccc(-n2nnnc2-c2ccco2)cc1
    -0.5, i
> C=CCNC(=O)c1ccccc1NS(=O)(=O)c1ccc(SC)cc1
    0.72, i
> Cc1cc(C)c(S(=O)(=O)c2cccc(Br)c2C)c(Cl)n1
    -1.5, i
> Cc1cc(NC(=O)COC(=O)CSCc2ccc(Cl)c(Cl)c2)no1
    -1.9, i
> CC(c1ccc(Br)cc1)N1CC23C=CC(O2)C(C(=O)O)C3C1=O (stereo not drawn)
    0.71, i
> O=C(COc1ccc(Br)cc1)Nc1ccc(C(=O)Nc2ccccc2C(=O)O)cc1
    1.4, i
> COc1cccc(CN(C)C(=O)c2ccc(NS(=O)(=O)c3ccc4[nH]c(=O)[nH]c4c3)cc2)c1OC
    -0.03, i
> CCn1cc(C(=O)NCCc2ccc(OC)c(OC)c2)c(=O)c2cc(S(=O)(=O)N3CCOCC3)ccc21
    -0.63, i

Molecules from the list above that have an aryl thioether with sulfur outside any ring, in the order listed:
Sequence of screens: KCNQ2 inh baseline, KCNQ2 inh
> Cc1ccc(S(=O)(=O)N(C)C)cc1NC(=O)CSc1nnnn1-c1ccc(O)cc1
    -0.02, i
> CSc1ccccc1C(=O)N1CCN(c2cccc(Cl)c2)CC1
    -1, i
> CCOC(=O)c1cc(C)nc(Sc2ccc(C)cc2)c1C#N
    2, i
> CSc1ccc(/C=C/c2ccc3cccc(O)c3n2)cc1
    0.17, i
> C=CCNC(=O)c1ccccc1NS(=O)(=O)c1ccc(SC)cc1
    0.72, i

Compound activity as filed in PubChem.
